# Compound activity deposited in PubChem BioAssay by several laboratories.
# CSC inhib: cancer stem cell viability inhibitors, primary screen, luminescence. AID 2717, 2010. hit rate 1.1% among 300,000. cancer stem cell-like cells viability. inhibition, % at 7.5 µM;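 active means mean at 75% or more and at least half the replicates too; inconclusive means mean and replicates disagree; tested in HMLE shEcad cells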;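 further: 0% = median of negative and 100% = median of positive control wells; the first replicate is given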
# PABP polyA inh: PABP poly(A) RNA binding inhibitors, primary screen, biochemical, fluorescence polarization, uHTS; Polyadenylate-binding protein 1 (Homo sapiens), P11940; inhibition, % at 35 µM; hit rate 1% among 290,000;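 active means 50% or more with normal probe brightness, or confirmed in later tests; inconclusive means above 50% with abnormal brightness, or retests that disagree; inactive means below 50% or failed in later tests; about a fifth of its hits are not listed in these tables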;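 further: calls also rest on retests at 20 µM and on dose response follow-up; controls were probe without protein and protein plus probe with vehicle; some compounds called inactive have numbers as strong as hits; many hits fall short of the cut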
# HIV Env fusion: inhibitors of HIV-1 Env-driven cell-cell fusion, primary screen, HeLa-JRFL effector, CEM21 target cells, luciferase. inhibition, % at 12.3 µM. hit rate 1.1% among 360,000. AID 651610, 2012;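 active means mean replicate inhibition score of at least 50 and every replicate individually at or above 50; inconclusive means only one of the two criteria met; inactive means mean below 50 and not all replicates reaching 50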;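 further: 0% = plate neutral controls and 100% = maraviroc near 300 nM; one replicate is shown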
# MT1-MMP act inh: blockers of MT1-MMP proenzyme processing, primary screen, HT1080 RFP-PRO-GFP cells, GFP/RFP fluorescence; Matrix metalloproteinase-14 (Homo sapiens), P50281; GFP/RFP ratio fluorescence, overnight; percent of plate control window, DMSO zero; GFP/RFP ratio change, % at 20 µM; hit rate 0.061% among 360,000;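 active means GFP/RFP ratio change of at least 30% with cell ATP level not reduced by more than half and red fluorescence within 50% of control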; further: strong numbers were not always called active
#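 Test system: HT1080 RFP-PRO-GFP cells; Benchmarks: DMSO and RFP-L50D-GFP cell wells; Timing: cells overnight before dosing, compound overnight, 37 °C, 5% CO2; Compound: one 20 µM compound dose with 1% DMSO; Read-out: GFP/RFP fluorescence ratio.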
# UUG fidelity: modulators of yeast start codon fidelity, primary screen, whole organism, S. cerevisiae, single point, plate reader; hit rate 0.13% among 350,000; S. cerevisiae UUG-firefly luciferase reporter, luminescence/redox ratio; AID 602363, 2012; activity score, % at 18.7 µM;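 active means replicate mean at a twofold rise or more, about +100% in these data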;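 further: firefly luciferase made from a UUG start codon reports start codon fidelity; reporter light over untreated wells divided by growth signal over untreated wells; some hits fall short of that in this replicate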
# Rce1 inh: yeast Rce1p protease inhibitors, primary screen, biochemical, fluorescence, cell-free homogeneous; CAAX prenyl protease 2 (Saccharomyces cerevisiae (strain ATCC 204508 / S288c)), Q03530; hit rate 0.27% among 290,000; calls only; yeast membranes, quenched prenylated peptide cleavage fluorescence; AID 2563, 2010;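 active means fall in fluorescence gain of 50% or more versus controls, with final raw signal at or below 3038400; inconclusive means same 50% fall but final raw signal above 3038400; inactive means fall in fluorescence gain under 50%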;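 further: plate controls were neutral control wells for no effect and wells lacking membranes for full effect; tested at 10 µM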
# Target sequence (Q03530 whole entry, looked up): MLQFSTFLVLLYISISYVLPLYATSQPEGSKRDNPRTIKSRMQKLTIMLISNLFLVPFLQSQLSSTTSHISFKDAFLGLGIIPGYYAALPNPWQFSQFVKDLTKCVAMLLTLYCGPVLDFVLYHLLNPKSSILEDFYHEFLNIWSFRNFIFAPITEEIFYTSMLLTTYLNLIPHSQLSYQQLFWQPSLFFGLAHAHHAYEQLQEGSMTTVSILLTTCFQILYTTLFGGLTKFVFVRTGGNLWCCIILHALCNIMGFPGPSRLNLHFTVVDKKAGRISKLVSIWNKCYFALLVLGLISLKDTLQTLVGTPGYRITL
# eIF4H FP inh: human eIF4H binding inhibitors, primary screen, translation initiation inhibitor project, biochemical, uHTS, fluorescence polarization; Eukaryotic translation initiation factor 4H (Homo sapiens), Q15056; eIF4H fluorescence polarization binding assay; inhibition, % at 35 µM; hit rate 0.94% among 290,000; AID 2012, 2009;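 active means 50% or more with normal probe brightness, or confirmed in later tests; inconclusive means above 50% with abnormal brightness, or retests that disagree; inactive means below 50% or failed in later tests; about a fifth of its hits are not listed in these tables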;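 further: calls also rest on retests at 20 µM and on dose response follow-up; 0% = protein and probe with vehicle and 100% = probe without protein; strong numbers were not always called active; many hits fall short of the cut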
# eIF4H FP inh retest: second read-out of eIF4H FP inh, no call of its own (marks repeat the call); inhibition, %; compound at 20 µM; confirmation average;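 mean of two retest wells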
# PABP polyA inh retest: second read-out of PABP polyA inh, no call of its own (marks repeat the call); inhibition, %; compound at 20 µM; confirmation repeats;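 mean of two retest wells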
# MT1-MMP act inh RFP: further read-out of MT1-MMP act inh, marked with its call; RFP signal change, %; measured here: RFP expression control read;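 0 = vehicle wells; hits needed this value within 50% of zero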
# * hit, by the source's call; i = inactive; ? = inconclusive; · = no result given. An excerpt. The share of hits here may be higher or lower than overall.
SMILES,CSC inhib,PABP polyA inh,HIV Env fusion,MT1-MMP act inh,MT1-MMP act inh RFP,UUG fidelity,Rce1 inh,eIF4H FP inh,others
S=c1nc(C2CCCCC2)[nH][nH]1,1,-5,·,4,-1,-2,i,3,
Nn1c(=S)[nH]c2sc3c(c2c1=O)CCCC3,4,·,-11,2,2,·,i,·,
Oc1ccc(/C=N/Nc2cc(N3CCCC3)nc(N3CCCC3)n2)cc1,5,?,-1,-4,-7,-5,i,51,eIF4H FP inh retest=17
COc1ccccc1C(=O)NC(=S)Nc1ccc(S(=O)(=O)N2CCN(C)CC2)cc1,12,6,8,2,-7,-2,i,5,
Cc1ccc(O)c(C(=O)c2cc(C#N)c(=O)n(C(C)c3ccccc3)c2)c1 (stereo not drawn),9,5,5,-3,-5,·,i,1,
COc1ccc(OC)c(C(C(=O)NCc2ccco2)N(C(=O)Cn2nnc3ccccc32)C2CC2)c1 (stereo not drawn),-12,-2,·,-61,-44,·,i,-6,
Cc1ccc(CNc2ccc(Cl)cc2[N+](=O)[O-])cc1,10,-5,-189,1,1,-19,i,-4,
CCN1CCC2(CC1)Oc1c(OC)cccc1C1CC(c3cccnc3)=NN12 (stereo not drawn),-11,-5,-7,-2,-1,-28,i,-10,
O=c1c2ccccc2oc2ccc(-c3ccc4[nH]ccc4c3)cc12,70,·,-312,-3,-3,-24,i,·,
CC(C)C[C@H](NC(=O)c1nc[nH]c1C(=O)NCC(=O)OC(C)(C)C)C(=O)OCc1ccccc1,1,-11,-16,2,-1,-5,i,0,
C[C@H](c1ccccc1)n1nnc(COCc2ccccc2)c1C#CCOCc1ccccc1,0,6,12,0,1,-10,i,-6,
O=C1CCNCCN1[C@H](CO)c1ccccc1,-1,-2,-4,1,3,-12,i,-9,
Cc1cccc(C)c1NC(=O)CN1CCN(CC(=O)NCC2(N3CCCCC3)CCCCC2)CC1,·,·,-5,2,-2,-12,·,·,
CCCOc1ccc(-c2cc(C(F)(F)F)c(C#N)c(SCC(=O)O)n2)cc1,-9,0,8,4,-2,·,i,12,
COc1ccc(Cl)cc1-c1cc(C(=O)NCc2cccs2)[nH]n1,·,·,-26,-4,-7,-24,·,·,
C=CCn1c(SC(C)C#N)nc2sc(CC)cc2c1=O (stereo not drawn),26,16,6,-1,-1,·,i,-5,
COc1ccc(NC(=O)Cn2cnc3sc(C)c(S(=O)(=O)N4CCN(C)CC4)c3c2=O)cc1OC,13,-5,-7,-5,0,·,i,-13,
COc1ccc(CNC(=O)CCS(=O)(=O)c2ccc(Br)cc2)cc1,-1,11,8,-1,7,-13,i,36,
FC(F)(F)c1nnc2c3ccccc3c(Cl)nn12,-15,17,-77,3,-4,7,i,-2,
Cc1cc(S(=O)(=O)Nc2ccccc2C)ccc1F,-3,-11,·,-1,1,-1,i,-9,
COC(=O)NCC(C)OC(=O)Nc1ccc(Cl)cc1 (stereo not drawn),-8,-2,-32,-2,-3,·,i,-1,
Cc1ccc(S(=O)(=O)N2CCN(c3ccccc3)CC2)cc1C,-6,-4,-22,-2,-1,-23,i,0,
CCN(CC)C(=O)Cn1cc(S(=O)(=O)CC(=O)Nc2ccccc2F)c2ccccc21,0,1,2,-3,2,-6,i,-3,
COc1ccc(S(=O)(=O)Nc2ccc(S(=O)(=O)N3CCCCC3)cc2)cc1,19,7,15,1,-3,2,i,-6,
Cc1onc(-c2c(F)cccc2Cl)c1C(=O)NCc1ccco1,-3,-11,·,-1,3,-5,i,7,
CNC(=O)/C(=C\C=C\c1ccccc1)NC(=O)c1ccc([N+](=O)[O-])cc1,-4,2,·,2,1,18,i,-11,
Cc1nn(-c2ccccc2)c2c1C1(C(=O)Nc3ccccc31)N1C(=N2)Sc2ccccc21 (stereo not drawn),13,5,·,-7,-12,-18,i,2,
CCN1CC(CN(C)Cc2nc(Cc3ccccc3)no2)CC1=O (stereo not drawn),-1,-9,-16,-1,3,7,i,-2,
Cc1c(C(=O)NCc2ccccc2CN2CCCC2)oc2ccc(F)cc12,·,·,6,0,4,-12,·,·,
CC(=O)c1ccc(N2Cc3ccccc3C3(CCOCC3)C2=N)cc1,-7,-1,-5,-1,3,·,i,1,
Cc1ccc(-n2c(C(C)C)nc3oc4ccccc4c(=O)c3c2=O)cc1,-11,-4,-231,2,2,·,i,-3,
CC(C)(C)C(=O)NC1=NCCS1,-2,-2,·,5,2,-9,i,-12,
O=C(CCCOc1ccc(Cl)cc1Cl)N/N=C\C1CCCCC1,8,1,·,-2,1,-8,i,2,
O=C1NC(=Nc2ccccc2)c2c1cccc2[N+](=O)[O-],-6,1,-17,0,0,-8,i,-3,
COc1ccc(-n2c(C)cc(SC)c(C(C)=O)c2=S)cc1,0,0,·,3,0,-11,i,7,
O=C(O)CCCN1C(=O)c2cccc3cccc(c23)C1=O,-10,1,-7,-3,1,-19,·,5,
CCC(CC)C(=O)Nc1ccncc1,·,3,·,·,·,·,i,8,
Cc1ccc2c(c1)c(N=Nc1ccc([N+](=O)[O-])cc1)c(O)n2C,5,7,8,-2,-1,-3,i,-2,
COc1ccc([C@H]2CC(=O)C=C(c3ccc4c(c3)sc3ccccc34)C2)cc1,16,·,5,2,4,-20,·,·,
CSc1cccc(-n2c(C)cc(C(N)=O)c2C)c1,12,5,24,-1,1,-8,i,-4,
COc1ccc(-c2csc(N3N=C(C)C(C)C3=O)n2)cc1 (stereo not drawn),-7,-1,-20,0,2,·,i,5,
COc1cccc(NC(=O)N2C3CCCC2CC(NC(=O)C2CC2)C3)c1 (stereo not drawn),-7,3,-4,-2,0,-9,i,0,
COc1ccc(S(=O)(=O)NC2CC3CCC2C3)cc1 (stereo not drawn),-2,2,-5,0,-2,-5,i,4,
O=C(NCc1ccco1)C1CC(c2ccccc2O)=NO1 (stereo not drawn),15,1,-2,4,10,·,i,-9,
N#CC(c1ccc(F)cc1)c1ccc(C(=O)c2ccc(F)cc2)cc1 (stereo not drawn),28,-7,·,-3,-23,·,i,-4,
CS(=O)(=O)N1CCCC(C(=O)N2CCc3ccccc3C2)C1 (stereo not drawn),-14,6,-15,-4,2,-12,i,6,
CC1(C)COC(Cc2ccccc2)=N1,·,·,-1,2,3,-6,·,·,
COc1ccc(Br)cc1CNC(=O)CCN1C(=O)COc2ccccc21,-8,-1,·,1,-2,10,i,-5,
COc1ccccc1/C=N/NC(=O)CC(=O)NCCc1ccccc1,-16,·,10,4,-2,-4,i,·,
C=CCNc1nc2ccccc2nc1NS(=O)(=O)c1ccc(Br)cc1,26,-3,7,0,-6,-2,i,-6,
Cc1ccc(N(Cc2ccccc2)C(=O)c2ccc(F)c(S(=O)(=O)N3CCOCC3)c2)cc1,2,·,0,-5,-4,-14,i,·,
CC1(C)Cc2c(ccc3ccccc23)-c2nnc(-c3cccnc3)n21,-11,-7,·,2,1,-12,i,-13,
CCOC(=O)c1ccccc1NC(=O)c1cn(-c2ccc(OC)cc2)c(=O)c2ccccc12,33,-16,20,-5,-9,-5,i,-2,
O=C(NC(NC(=O)c1ccccc1)C(=O)c1ccccc1)c1ccccc1,-17,6,·,2,-2,-16,·,-1,
On1ccccc1=S,1,·,-22,3,-6,-58,·,·,
O=[N+]([O-])c1ccc(-c2c[nH]c(=S)[nH]2)cc1,0,-2,-15,2,0,3,·,4,
O=C(Cc1cccc(NC(=O)C2CCN(C(=O)C3CCCC3)CC2)c1)Nc1cccc(C(=O)N2CCOCC2)c1,·,·,18,1,2,5,·,·,
CC(=O)Nc1ccc(NC(=O)C(C)OC(=O)c2ccccc2Sc2ccccc2C#N)cc1 (stereo not drawn),-11,-6,·,-4,0,-9,i,4,
CC(C)Oc1ccc(CN2CCC2(C)C(=O)Nc2cccc(Oc3ccccc3)c2)cc1 (stereo not drawn),·,·,14,-8,-10,-1,·,·,
CNC(=S)NNC(=O)c1cccn(Cc2ccc(Cl)c(Cl)c2)c1=O,-7,-1,-39,8,1,-27,i,0,
# Next entries:
SMILES,CSC inhib,PABP polyA inh,HIV Env fusion,MT1-MMP act inh,MT1-MMP act inh RFP,UUG fidelity,Rce1 inh,eIF4H FP inh,others
CN(C)c1ccc(/C=C2\C(=N)N3N=C(CC(=O)N4CCCCC4)SC3=NC2=O)cc1,-28,·,-7,-77,3,-2,i,·,
COc1ccc(NC(=O)COC(=O)CC2Sc3ccccc3NC2=O)cc1 (stereo not drawn),·,·,-26,-1,3,-10,·,·,
CCOc1cc(CO)ccc1OCC(=O)N1CCCCC1,·,-6,27,1,6,·,i,1,
O=C(Nc1cccc2ccccc12)c1ccccc1NS(=O)(=O)c1cccc2cccnc12,·,-6,·,1,-4,-7,i,-11,
CCC(=O)Nc1ccc2oc(-c3cccnc3)nc2c1,-13,-18,-30,-4,0,-14,i,-5,
O=C(N/C(=C/c1ccc(Br)cc1)C(=O)N1CCOCC1)c1cccs1,11,7,2,-2,-1,·,i,1,
CCOC(=O)/C=C/C(=O)Nc1ccc(S(=O)(=O)N(C)c2ccccc2)cc1,38,0,-6,2,-1,·,·,66,eIF4H FP inh retest=-13;PABP polyA inh retest=1
COc1cc(C(=O)N2CCN(Cc3ccccc3C(F)(F)F)CC2)cc(OC)c1OC,-13,8,13,0,0,5,i,10,
Cc1ccsc1C(=O)OCC(=O)Nc1sccc1C(N)=O,0,16,-82,-5,-1,·,i,-7,
CC(C)CCNC(=O)NC(=O)COc1ccccc1C#N,-6,3,-37,10,7,4,i,4,
CCCCN(C=O)c1c(CC)nc2ccc(C(=O)NCc3cccs3)cn12,·,·,-7,-2,4,-9,·,·,
O=C(OCC(=O)N1CCc2ccccc21)c1ccc(Br)o1,-20,·,·,3,4,-11,·,·,
O=C(O)C1CCC(=O)N1Cc1ccccc1Cl (stereo not drawn),10,5,·,-1,3,-13,·,-16,
Cc1c(-c2ccccc2)[n+](=O)c(-c2ccc(Br)cc2)c(C)n1[O-],-12,-4,-12,-2,-2,-6,i,2,
Cc1cc(C(=O)COC(=O)C2COc3ccccc3O2)c(C)n1CC1CCCO1 (stereo not drawn),6,4,-29,1,6,-36,i,-4,
C=CCNCC(O)COc1ccc(C(C)=O)cc1OC (stereo not drawn),2,18,0,2,3,·,i,0,
Cc1ccccc1NC(=O)c1c(C)[nH]c(=S)c(C#N)c1-c1ccc(Cl)cc1,0,8,8,-16,12,-30,i,2,
CCc1ccccc1NC(=O)CSc1nc2ccccc2n1CC(=O)N(C)C,·,-2,-59,1,1,-21,i,-3,
COc1ccc(NCc2nnc(SCC(=O)N3CCCc4ccccc43)o2)cc1,·,2,9,-10,-9,1,i,2,
Cc1ccc(NC(=O)c2ccc3ccccc3n2)cc1S(=O)(=O)N(C)C,·,21,-32,4,-2,-13,i,-7,
CN(C)CCCN1C(=O)C(=O)/C(=C(/O)c2ccncc2)C1c1ccccc1 (stereo not drawn),-4,3,·,2,5,·,i,-10,
